AID504770: growth inhibition of E. coli YBA685, primary screen, V. cholerae RctB inhibitors. z-score (concentration not given with the values). actives 0.27% (n = 130,000). AID 504770, 2011. E. coli YBA685 rctB-dependent plasmid, OD600 growth, 3 h; hits give low values;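 active = z-score under -2 on both plates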;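 note: wells of about 30 µL received 100 nL stock; score is relative to mean and SD of the test wells; the first replicate is given; strong numbers were not always called active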
CapD inh: Bacillus anthracis CapD inhibitors, primary screen, biochemical, fluorescence intensity; purified CapD enzyme, fluorescence intensity read-out; hits give low values; some hits fall short of the stated cut; AID 492967, 2010; CapD gamma-glutamyltranspeptidase (Bacillus anthracis Ames Ancestor); actives 0.23% (n = 140,000); z-score (no concentration beside the values);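 active = z-score under -4 in either of two replicates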;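 note: stock transfer was 100 nL into about 40 µL; score is relative to mean and spread of the plate; one replicate is shown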
Starred values were filed as active, the others as inactive; . = no result given. Not all compounds are listed; the hit share may differ from the screen's.

Values in the order – AID504770, CapD inh
COC(=O)C1=C(C(=O)OC)SC2(S1)C(C(=O)OC)=C(C(=O)OC)SC1=C2c2cc(C)cc(C)c2N(C(C)=O)C1(C)C
 : ., -0.58
COC(CNS(=O)(=O)c1cn(C)c(=O)n(C)c1=O)OC
 : 1.1, .
O=c1c(C=Nc2ccccc2)c(O)c2c(n1-c1ccccc1)CCCC2
 : 0.8, 2.8
CCOCCOC(=O)C1=C(C)NC(=O)NC1c1ccc(OCc2ccccc2)cc1 (configuration not stated)
 : ., -0.02
C=CCN1C(=O)/C(=C/c2c(N3CCCCC3)nc3ccccn3c2=O)SC1=S
 : 0.1, 79
CCc1ccc(-c2nc3c(C#N)c[nH]n3c2NC2CCCCC2)cc1
 : 0.05, -0.12
NC(=S)N/N=C/c1ccc([N+](=O)[O-])s1
 : ., 0.46
Cc1ccc2oc(=O)c3cc(C(=O)NCCN4CCc5ccccc5C4)sc3c2c1
 : 0.3, 6.7
CC1(C)CC2CC(C)(CN2C(=O)COCc2cc(-c3ccco3)on2)C1 (configuration not stated)
 : 1.1, 0.78
CCN(CC)C(=N)/C(C#N)=N\Nc1ccc(C)cc1
 : 0.05, -2.7
O=C(Nc1ccccc1I)c1ccccc1
 : -1.5, .
O=C(O)C1(NCc2ccccc2Cl)CCCCC1
 : 0.2, .
NNc1c(O)c(C(=O)O)cc2ccccc12
 : -0.7, .
COc1ccc(C2=NN(C(=O)c3cccs3)C(c3ccc(OC)cc3)C2)cc1 (configuration not stated)
 : ., 0.4
CC12CCC(/C(=C/c3ccccc3)C1=O)C2(C)C (configuration not stated)
 : ., -0.54
O=C1CS(=O)(=O)C(c2ccc(Oc3ccccc3)cc2)N1c1ccccc1 (configuration not stated)
 : -0.55, -0.12
O=C(O)COc1c(Cl)cc(C=C2C(=O)NC(=S)NC2=O)cc1Cl
 : 0.25, 0.85
c1ccc(Cn2c3ccccc3n3ncnc23)cc1
 : -0.15, 0.025
c1cc2c(s1)CCNC2C1CC1 (configuration not stated)
 : 0.5, .
CN(C)S(=O)(=O)c1ccc(SCC(=O)NC(=O)NC2CCCC2)nc1
 : -0.3, .
CC1=C(C(=O)Nc2ccccc2C(=O)NCc2ccccn2)SCCO1
 : -1.4, -0.37
CCOC(=O)c1cc(C(F)(F)F)[nH]n1
 : 0.05, 0.4
CC(C)(C)C(=O)N1CCCC(c2nc3c(nnn3Cc3ccc(C(C)(C)C)cc3)c(=O)[nH]2)C1 (configuration not stated)
 : -0.35, .
COc1cc(OC)cc(C(=O)OC2CCCCC2=O)c1 (configuration not stated)
 : -0.15, .
Cn1nc(-c2ccccc2)cc1NC(=O)C1COc2ccccc2O1 (configuration not stated)
 : 0.55, -0.15
Cc1ccc(C)c(NC(=O)Cn2cccc2)c1
 : -0.25, 54
CCOC(=O)N1CCN(C(=O)c2ccc(CS(=O)Cc3ccc(C)cc3)o2)CC1 (configuration not stated)
 : -1.4, 0.48
CN(C)S(=O)(=O)c1ccc(N2CCCCC2)c(C(=O)Nc2ccc3c(c2)OCO3)c1
 : 1.7, .
COc1ccc(CCN(C)Cn2c(=O)oc3ccccc32)cc1OC
 : -0.8, .
Clc1ccc(-c2csc(NNC3=NCCCCC3)n2)cc1
 : -0.4, .
COC(=O)c1cc(/C=C/C(=O)O)oc1C
 : 0.15, .
Cc1ccc(CNC(=O)CN(Cc2ccccc2)S(=O)(=O)c2ccccc2)cc1
 : 1.3, -0.26
O=C(Nc1ccc(F)cc1F)Nc1ccccc1C(=O)NCCN1CCNC1=O
 : -0.7, 4
C#CCSc1nc2ccccc2c(=O)[nH]1
 : -0.4, .
N#C/C(=C/Nc1ccc(S(N)(=O)=O)cc1)c1nc(-c2ccc(Cl)c(Cl)c2)cs1
 : 2.7, -1.2
COc1ccccc1Nc1nc2nonc2nc1N1CCC(C)CC1
 : ., -0.99
Cc1cc(C)n2nc(C(=O)OCC(=O)NC3CCCCC3)nc2n1
 : 2, .
COC(=O)c1c(C)[nH]c(C)c1-c1ccon1
 : -0.35, 1.3
CC(=O)NCCC(=O)Nc1nc(SCc2ccc(Cl)cc2)n[nH]1
 : 0, .
O=C1CCCN2N=C(SCC(=O)Nc3cccc4ccccc34)SC2=N1
 : -0.05, .
CCOC(=O)c1cnc2c(ccc3ccccc32)c1Nc1ccccc1C
 : ., -0.03
CCOC(=O)C1CCN(C(=O)CSc2ccc3ccccc3c2)CC1
 : 0.35, 0.075
CC(C)C(=O)Nc1cccc(C(=O)Nc2ccccc2)c1
 : 0.6, 0.11
COc1ccc(C2C3=C(CC(C)(C)CC3=O)OC3=C2C(=O)CC(C)(C)C3)cc1CN1CCOCC1
 : ., -0.44
O=C(C1=NN(c2ccccc2)C(=O)CC1)N1CCN(Cc2ccc3c(c2)OCO3)CC1
 : 0.4, .
COC(=O)Nc1nc2ccc(-c3n[nH]c(=O)c4ccccc34)cc2[nH]1
 : 0.1, 1.4
CCOC(=O)c1cc(C)n(CC(=O)O)c1C
 : -0.2, .
COc1ccc(CN2C(=O)C3(OCCCO3)c3ccccc32)cc1
 : -0.7, .
O=C(NC1CCCC1)c1noc2c1CCCCC2
 : -0.7, -0.03
NCCOc1ccccc1
 : 0.6, .
O=C(CCCn1c(=O)[nH]c2cc(Cl)ccc2c1=O)NCCN1CCN(c2ccccc2)CC1
 : -0.4, 0.51
COc1ccc(-c2noc(CN(C3CCCCC3)S(=O)(=O)c3ccc(F)cc3)n2)cc1
 : -0.3, -0.42
O=C(Nc1c2c(nn1-c1ccc(Cl)cc1)CSC2)c1ccco1
 : -0.95, -0.015
Cc1ccc(C2C3CCCC=C3C(C#N)C(N)C2(C#N)C#N)s1 (configuration not stated)
 : -1, 0.5
CC1CN(CCC(=O)Nc2ccc3c(c2)OCO3)CC(C)O1 (configuration not stated)
 : -0.45, .
Cc1ccc(S(=O)(=O)N(CC(=O)N2CCCCC2)C2CCCCC2)cc1
 : -0.65, -0.93
COc1ccc(CNC(=O)COC(=O)CC2CCCC2)cc1
 : -0.7, -0.38
CCN(CC)S(=O)(=O)c1ccc2c(c1)nc(CCC(=O)OCC(N)=O)n2C
 : -0.25, .
O=C(CSc1ccccc1)NCc1ccc2c(c1)OCO2
 : -0.1, 0.62
O=C1c2ccccc2NC(c2ccc(Br)cc2)N1c1ccc2ccccc2c1 (configuration not stated)
 : ., 4.4

Next section.
Values in the order – AID504770, CapD inh
COc1ccc(N(C)S(=O)(=O)c2ccc3c(c2)oc(=O)n3C)cc1
 : 1.6, 1.4
COC(=O)C1CCN(S(=O)(=O)c2ccc(OC)cc2)CC1
 : -0.35, .
O=C(Nc1ccc(S(=O)(=O)N2CCCCC2)cc1)C1CCCCC1
 : -0.5, .
CCCn1c(=O)n(C)c(=O)c2c(SCC(=O)O)nc(CC(C)C)nc21
 : 0.05, .
CC(=O)Nc1nc(N)n(-c2ccccc2)n1
 : 0.25, 0.59
O=C(NCCC1=CCCCC1)C1CCN(C(=O)Cc2ccccc2)CC1
 : 1.6, .
CC1(C23CC4CC(CC(C4)C2)C3)CC(=O)O1 (configuration not stated)
 : -0.4, -0.53
O=C(NN1C(=O)/C(=C2/C(=O)N(Cc3ccccc3Cl)c3ccccc32)SC1=S)c1ccncc1
 : ., 0.21
COc1ccc(S(=O)(=O)N2CC=C(c3ccccc3)CC2)c(OC)c1
 : -0.95, 0.36
O=C(N/N=C1\CC(=O)c2ccccc21)c1ccc2c(c1)OCO2
 : 0, .
O=C(c1ccccc1)N1c2ccccc2Sc2ccc(Cl)cc21
 : ., -0.53
O=C(CSc1ccc2ccccc2c1)NCCCN1CCCC1=O
 : 0.5, 0.67
COc1ccc(OC)c(SCC(=O)N2CCc3c([nH]c4ccccc34)C2C(F)(F)F)c1 (configuration not stated)
 : ., -1.1
O=c1cc(CN2CCc3ccccc32)occ1OCc1ccc(Cl)cc1
 : 0.25, .
CCCc1cc(C(=O)Nc2cccc(Cl)c2)no1
 : -1.1, -0.58
CSc1nc(/N=C/N(C)C)n2nc(C)cc2n1
 : -0.4, -0.36
Nc1c(C(=O)Nc2ccc3c(c2)OCCO3)nnn1Cc1ccc(Br)cc1F
 : -0.3, -0.29
CC(C)(C)C(=O)C1C2C3COC(O3)C(=O)C2C2C=Cc3ccccc3N21 (configuration not stated)
 : 3.5, .
COC(=O)c1cccn1-c1ccc(F)cc1
 : ., 0.12
O=C(Cc1c[nH]c2ccccc12)NCc1ccccc1
 : -1.4, -0.53

Entries listed so far with a CF3 group (2):
Values in the order – AID504770, CapD inh
CCOC(=O)c1cc(C(F)(F)F)[nH]n1
 : 0.05, 0.4
COc1ccc(OC)c(SCC(=O)N2CCc3c([nH]c4ccccc34)C2C(F)(F)F)c1 (configuration not stated)
 : ., -1.1

Next part.
Values in the order – AID504770, CapD inh
COc1cc(C=NCc2ccccc2)ccc1O
 : -0.4, -2.2
Nc1cc(=O)[nH]c(SCC(=O)Nc2cccc(C(F)(F)F)c2)n1
 : -0.1, .
N#Cc1c2c(c(NCc3ccccc3)n3c1nc1ccccc13)CCC2
 : ., 0.59
CCN1/C(=C2/SC(=S)N(C)C2=O)C=Cc2ccccc21
 : -0.1, 0.36
CCc1ccc(C(=O)Nc2ccc(Br)cn2)cc1
 : -0.45, 9.7
C=CCN(CC=C)C(=O)CSc1nnc2c3ccccc3n(CC)c2n1
 : -0.55, .
O=C1/C(=C/C2CC=CCC2)SC(=S)N1CC1CCCO1 (configuration not stated)
 : -0.85, 71
CN(C)/C=C(\C#N)C(=O)NC1CCCCC1
 : -0.15, 0.1
CCCN1CCC(N(C2CC2)S(=O)(=O)c2ccc(NC(=O)Nc3ccccc3)cc2)CC1
 : ., -0.62
CN1CCN(c2ccc(S(C)(=O)=O)cc2NC(=O)C(C)(C)C)CC1
 : ., -0.39
CCCOc1ccc(C2CC(=O)Nc3c2ccc2ccccc32)cc1OC (configuration not stated)
 : ., 1.5
O=C(NCc1ccccc1)c1cc(=O)[nH]c(=O)[nH]1
 : -0.05, .
CC(C)(C)C(=O)Nc1nnc(-c2ccc(Br)cc2)s1
 : -1.1, -0.6
CC1(C)C(=O)Nc2ccccc2N1C(=O)COc1ccc2ccc(=O)oc2c1
 : -0.4, .
CC1=C(C(=O)Nc2ccccn2)C(c2ccc(O)cc2)n2ncnc2N1 (configuration not stated)
 : ., -1.6
Cc1ccc2c(c1)/C(=N/OCC(=O)NCCc1ccccc1)C(=O)N2
 : 0.65, .
O=C(O)COc1ccc2c(c1)C(=NO)c1cc(OCC(=O)O)ccc1-2
 : ., -0.67
CCOC(=O)c1cc2c(ccn2C)n1Cc1ccccc1C#N
 : 1.8, .
CC1(C)O[C@@H]2C[C@H]3[C@@H]4C[C@H](F)C5=CC(=O)CC[C@]5(C)[C@H]4[C@@H](O)C[C@]3(C)[C@]2(C(=O)CO)O1
 : ., 1.5
COc1cccc(C(=O)NC(=O)c2oc3ccccc3c2C(N)=O)c1OC
 : 0.25, .
O=C(Nc1ccc(Oc2ccccc2)cc1)C1CC1
 : -0.4, 0.4
CCCNC(=O)c1ccccc1NC(=O)c1ccncc1
 : -0.25, -0.16
COc1ccc(CC(=O)Nc2ccc(-c3n[nH]c(=S)s3)cc2)cc1
 : 0.35, 0.15
O=C(Nc1ccc(N2CCOCC2)c(Cl)c1)c1ccc(Br)o1
 : -0.5, -0.85
CCOc1ccc(-n2nc(C(=O)NCCCN3CCCCC3CC)c3ccccc3c2=O)cc1 (configuration not stated)
 : ., -0.19
O=C(O)c1cccc(S(=O)(=O)Nc2ccccc2)c1
 : -0.7, -0.36
CCOC(=O)c1cnc(SC)nc1N
 : -1.5, -0.1
O=C(N1CCCCC1)N1CCN(C(c2ccccc2)c2ccccc2)CC1
 : 0.3, 0.48
CCOC(=O)c1cc2sccc2n1CC(=O)N1CCCC1
 : 0.25, .
COc1ccc(N2Cc3cccc(C(=O)NCCc4cccc(C)c4)c3C2=O)cc1
 : 0.65, 3.5
Cc1nn(C(=O)C(C)(C)C)c(C)c1Cc1c(F)cccc1Cl
 : ., -0.055
Nc1ccc(Cl)cc1-c1nc2ccccc2[nH]1
 : ., 85
Cc1ccc(Cn2nc(C(=O)Nc3ccccc3)cc2C)cc1
 : -0.95, -0.36
Cc1ccc(C#N)c(SC(C(=O)O)c2ccccc2)n1 (configuration not stated)
 : -0.2, 0.78
O=C(On1c(-c2ccccc2)nc2ccccc2c1=O)c1cccc(C(F)(F)F)c1
 : -0.3, -0.6
COc1ccc(C(C#N)(CCC#N)c2ncc(C(F)(F)F)cc2Cl)cc1 (configuration not stated)
 : ., -0.24
O=C(/C=C/c1cccs1)OCc1ccc2c(c1)OCO2
 : 0.35, -1
COc1ccccc1-c1c(C(F)(F)F)oc2cc(OCC(=O)OC(C)C)ccc2c1=O
 : ., 0.095
O=C1CC(c2ccco2)CC2=C1C(c1ccco1)Nc1ccccc1N2 (configuration not stated)
 : -0.4, -1.8
Cc1c(C(c2cc(Br)c(O)c(Br)c2O)c2c(C)n(C)n(-c3ccccc3)c2=O)c(=O)n(-c2ccccc2)n1C
 : ., -0.29
CCOC(=O)N1CCN(c2ccccc2OC)CC1
 : 0.7, 1.8
CC(c1n[nH]c(=S)n1Cc1ccccc1)N(C)C (configuration not stated)
 : 0.15, .
CC(=O)Oc1ccc2cc(-c3nc(-c4ccc(Cl)c(Cl)c4)cs3)c(=O)oc2c1
 : ., -0.11
Cc1nnc2c3ccccc3c(N3CCCCC3)nn12
 : -0.3, 0.68
COC(=O)C(NC(=O)c1cc(-c2ccccc2)nc2ccccc12)C(C)C (configuration not stated)
 : -0.35, 8.1
Cc1ccc(S(=O)(=O)CCc2nnc(NC(=O)c3ccc(Br)cc3)s2)cc1C
 : ., -0.22
COCc1cc(OC(=O)N(C)C)nc(COc2ccc(Cl)cc2)n1
 : -1.3, 10

Screening data deposited in PubChem by ICCB-Longwood Screening Facility, Harvard Medical School.
